Screens deposited in PubChem by several laboratories.
Bfl-1 A1 inh: inhibitors of the anti-apoptotic protein A1, read as caspase activation; MEF A1-2A-BIM cells, Caspase-Glo 3/7 luminescence, 3 h; percent of clofoctol response, vehicle zero; caspase activation, % (concentration not given with the values); 0.066% of 330,000 active; AID 2462;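 active means over half of replicate activation scores above 10%, or exactly half above 10 with the replicate mean above 10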;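 further: wells of about 30 µL received 50 nL stock; many hits fall short of the cut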
AF4-AF9 inh: MLL-AF4/AF9 protein interaction inhibition. AlphaScreen, biotin-AF4 peptide binding to FLAG-AF9. inhibition, % at 10 µM. 0.47% of 350,000 active. AID 651704;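 active means every replicate reaching a set inhibition limit, whatever the replicate mean, cut at about 25% in these data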;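 further: 0% = plate neutral control median and 100% = total signal loss; the record names both 10 and 1 µM as test concentration; the first replicate is given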
Target sequence (P42568 whole entry, looked up): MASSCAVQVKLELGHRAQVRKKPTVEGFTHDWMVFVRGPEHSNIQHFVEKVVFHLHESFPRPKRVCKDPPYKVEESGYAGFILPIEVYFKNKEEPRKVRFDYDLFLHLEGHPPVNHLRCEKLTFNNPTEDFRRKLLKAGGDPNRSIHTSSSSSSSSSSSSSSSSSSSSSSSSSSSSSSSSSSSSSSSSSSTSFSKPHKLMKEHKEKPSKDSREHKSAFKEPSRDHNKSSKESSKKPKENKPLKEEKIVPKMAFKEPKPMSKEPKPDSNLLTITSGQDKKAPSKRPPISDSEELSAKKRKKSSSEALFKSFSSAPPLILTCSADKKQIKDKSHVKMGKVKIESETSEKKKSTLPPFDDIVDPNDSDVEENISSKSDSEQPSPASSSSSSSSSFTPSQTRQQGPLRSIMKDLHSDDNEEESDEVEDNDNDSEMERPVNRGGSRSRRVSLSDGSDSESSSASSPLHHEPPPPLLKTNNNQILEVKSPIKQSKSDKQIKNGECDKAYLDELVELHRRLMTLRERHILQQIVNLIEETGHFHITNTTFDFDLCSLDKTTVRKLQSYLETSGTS
T cruzi inh: blocks replication of Trypanosoma cruzi | T. cruzi beta-gal in NIH3T3, luminescence, 90 h | inhibition, % (test concentration not listed) | 1.4% of 300,000 active | AID 1885;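 active means mean inhibition across valid replicates above about 55%, limit read from the data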;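 further: signal also drops with host cell toxicity which is not excluded here; 0% = plate median of DMSO wells and 100% = zero luminescence signal; higher percent means less beta-gal luminescence so fewer parasites; stock transfer was 50 nL into about 50 µL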
UCH37 inh: inhibitors of human deubiquitinating enzyme UCH37 | Q9Y5K5 | purified proteasome/UCH37, Ub-AMC cleavage fluorescence | inhibition, % (no concentration beside the values) | 0.33% of 330,000 active;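 active means mean of two replicates above 20%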;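 further: 0% = compound-free wells with enzyme and 100% = wells lacking proteasome; stock transfer was 100 nL into about 20 µL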
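Reagent: Ub-AMC substrate; assay system: Proteasome-associated human UCH37 deubiquitinase; controls: no-proteasome and no-compound wells; read-out: % inhibition of Ub-AMC cleavage fluorescence; timing: 30 min preincubation with enzyme, 25 min cleavage at room temperature; signal: AMC fluorescence from Ub-AMC cleavage, excitation 355 nm, emission 460 nm; buffer or medium: Tris-HCl pH 7.4 plus ovalbumin, ATP-MgCl2, DTT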
Ecoli growth: inhibitors of Escherichia coli growth | 0.21% of 330,000 active | OD600, 23 h; active compounds read low | OD600 absorbance (test concentration not listed);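 active means OD600 absorbance below the run mean of sample wells minus 3.6 SD, in any replicate, cut at about 0.56 in these data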;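 further: stock transfer was 300 nL into about 60 µL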
Beta cell apopt: beta cell apoptosis inhibition. INS-1E cytokine-induced death, ATP luminescence, 48 h; percent of positive-control rescue, neutral wells zero. protection from apoptosis, % (concentration not given with the values). 0.8% of 300,000 active. AID 435005;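 active means all replicates at 75% or more, or half of them and the mean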;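 further: 0% = cytokine-treated negative control wells and 100% = positive control rescue; higher means more ATP so stronger rescue from cytokine killing; wells of about 40 µL received 100 nL stock; the first replicate is given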
FGF22 binding: binders of recombinant human FGF22 by thermal shift. AID 651658. 1.5% of 340,000 active. Q9HCT0. SYPRO orange fluorescence; percent of sucrose octasulfate shift, DMSO zero. calls only at 9.99 µM;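 active means melting point raised past a set limit in the mean and every replicate; three in four hits are not shown here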
Target sequence (Q9HCT0 whole entry, looked up): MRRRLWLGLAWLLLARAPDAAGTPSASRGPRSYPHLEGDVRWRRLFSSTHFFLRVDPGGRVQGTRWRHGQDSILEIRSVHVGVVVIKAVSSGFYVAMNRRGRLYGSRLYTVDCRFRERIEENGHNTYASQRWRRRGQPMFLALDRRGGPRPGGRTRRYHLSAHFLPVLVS
Ecoli rRNA inh: selective bacterial rRNA inhibition in E. coli; E. coli WT GFP vs humanized-ribosome RFP mutants, fluorescence, 24 h; active compounds read low; DMSO median 0, no signal -100; AID 720706; 1.6% of 350,000 active; GFP signal change (wild-type ribosome), % (test concentration not listed);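 active means significant combined selectivity score with lowered wild-type GFP, culture density cut under 30%, mutant RFP and density less affected; inactive means any of these conditions unmet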; further: one replicate is shown; some compounds called inactive have numbers as strong as hits
Ecoli rRNA inh OD600: second read-out of Ecoli rRNA inh, no call of its own (marks repeat the call); OD600 change, %; measured here: OD600 growth;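 optical density of the mix in the first replicate; 0 = DMSO median and -100 = no signal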
Ecoli rRNA inh RFP: further read-out of Ecoli rRNA inh, marked with its call; RFP signal change, %; measured here: RFP humanized mutant strains;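 first replicate; 0 = DMSO median and -100 = no signal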
* marks the source's active call; other numbers are inactive results; i = inactive; · = not tested or not shown; & = joins results of further samples. The list is partial. The share of hits here may be higher or lower than overall.

molecule	Bfl-1 A1 inh	AF4-AF9 inh	T cruzi inh	UCH37 inh	Ecoli growth	Beta cell apopt	FGF22 binding	Ecoli rRNA inh	Ecoli rRNA inh OD600	Ecoli rRNA inh RFP
COc1ccc(-n2c(=O)[nH]c3cc(C(=O)NCCc4ccc(Cl)cc4)ccc3c2=O)cc1OC	-0.3	1.3	-7	-3.0	0.67	7	i	10	-2	0.3
COc1ccc(C(C(=O)NC(C)(C)C)N(Cc2ccco2)C(=O)CCC(=O)Nc2ccccn2)cc1 (centres undefined)	-0.1	0.2	-10	5.8	0.66	1	i	1	-3	1.6
COc1cc(NC(=O)CSc2nc3[nH]ncc3c(=O)n2-c2ccc(Cl)cc2)cc(OC)c1	-0.9	-4.5	40	7.6	0.69	·	i	-4	-2	2.0
Cc1ccc(NCc2ccccc2)cc1	-0.3	-3.6	58*	0.5	0.66	-5	i	11	12	0.0
CCc1nc(NCCc2ccccn2)c2nnn(Cc3ccccc3F)c2n1	1.7	·	-10	-1.5	0.7	9	·	·	·	·
Cc1cc(C)c(C#N)c(Nc2ccccc2C)n1	0.3	1.5	7	-0.3	0.7	4	i	9	1	0.1
Cc1cc2c(=O)n(C)c(SCC(=O)Nc3cccc(O)c3)nc2s1	0.5	0.3	4	1.0	0.68	2	i	-2	-16	-2.4
COc1cc([N+](=O)[O-])ccc1NC(=O)CCCOc1ccc(C)cc1	-1.0	·	-7	1.0	0.73	·	·	·	·	·
CCOc1ccc(C(=O)Nc2ccc3nc(N4CCN(CC)CC4)cc(C)c3c2)cc1	0.4	0.5	51	-1.1	0.66	14	i	4	8	9.3
COc1cc(C(=O)OCC(=O)Nc2ccc(OC(F)F)cc2)cc(OC)c1OC	-0.6	-1.4	-7	-1.1	0.69	-4	i	-3	10	-0.1
CCOC(=O)c1c(NC(=O)c2cccs2)sc(C)c1CC	0.4	·	29	-39	0.67	·	·	·	·	·
COc1cc(CO)ccc1OCc1nnnn1-c1ccc(C)cc1	0.5	0.7	-8	0.5	0.67	0	i	4	-2	1.2
Cc1ccc(NC(=O)C2CC(O)CN2C(=O)Oc2ccccc2)c(C)c1 (centres undefined)	0.4	-1.8	-7	0.7	0.65	-3	i	3	7	2.1
Cc1occc1C(=O)N1CCCC(N2CCN(c3ccccc3F)CC2)C1 (centres undefined)	0.6	-4.3	-3	3.2	0.7	-12	i	-10	-9	0.3
COc1ccc(NS(=O)(=O)c2cc(NC(=O)Cc3n[nH]c(=O)c4ccccc34)ccc2OC)cc1	·	0.7	·	2.2	0.67	·	i	1	-18	1.5
C=CCCC(=O)Nc1ccc(Br)cn1	0.3	-3.5	-5	2.0	0.69	3	i	8	18	1.2
CCc1ccc(-c2nc(SCC(=O)N3CCOCC3)n[nH]2)cc1	0.5	-2.5	-7	2.0	0.67	-3	i	-5	1	-1.8
CC/C(=N\NC(=O)c1c(C)nc2ccccn12)c1ccc(Cl)cc1	0.5	2.6	-12	·	·	-4	i	-10	-5	0.9
CCN(CC)c1ccc(NC(=O)c2cc3ccccc3o2)c(C)c1	-0.6	·	30	0.1	0.72	1	·	·	·	·
Cc1ccc(S(=O)(=O)N2CCOCC2)cc1C(=O)OCC(=O)c1c(N)n(C)c(=O)n(C)c1=O	-0.2	-6.7	·	3.1	0.66	0	i	·	·	·
O=C(NC1CCN(Cc2ccc(Cl)c(Cl)c2)CC1)c1ccccc1	0.3	-2.3	21	6.1	0.64	·	i	-2	-1	-2.1
COc1ccc(NC(=O)N(C)C[C@H]2Oc3ccc(NC(=O)CCC(F)(F)F)cc3C(=O)N([C@H](C)CO)C[C@@H]2C)cc1	0.0	2.7&4.7	·	3.4	·	-2	i	5&5	12&4	-3.1&-0.5
O=C(COc1ncnc2ccccc12)NCCC1=CCCCC1	-0.1	·	-6	-0.5	0.66	1	·	·	·	·
CCOC(=O)c1ccc(NC(=O)c2cc(C)nn2-c2ccccc2)cc1	-1.8	0.2	-11	6.7	0.66	2	i	-8	-21	-3.1
Cn1c(SCCCC(=O)c2ccc(Br)cc2)nnc1-c1ccncc1	0.2	·	10	0.3	0.62	9	·	·	·	·
CCn1c(=S)[nH]c2sc3c(c2c1=O)CCCC3	1.9	-5.8	-2	4.9	0.7	0	i	3	1	-1.6
COc1ccc(C2=NO[C@@H]3C(=O)N(c4ccc5c(c4)OCCO5)C(=O)[C@H]23)cc1OC	1.7	·	9	3.8	0.67	-1	·	·	·	·
CN(C)C(CNC(=O)c1ccc(S(=O)(=O)NCc2ccco2)cc1)c1ccccc1 (centres undefined)	-0.8	·	9	-1.0	·	2	·	·	·	·
O=[N+]([O-])c1cc(C(F)(F)F)ccc1NCCc1ccccn1	-0.7	1.3	-7	4.9	0.62	3	i	-33	-34	-5.8
Cc1cccc(N2CCN(C(=O)COCc3cc(-c4ccc5c(c4)OCO5)on3)CC2)c1C	-0.8	-1.0	-1	2.4	0.69	-6	i	-11	-21	2.1

(next part)
molecule	Bfl-1 A1 inh	AF4-AF9 inh	T cruzi inh	UCH37 inh	Ecoli growth	Beta cell apopt	FGF22 binding	Ecoli rRNA inh	Ecoli rRNA inh OD600	Ecoli rRNA inh RFP
Cc1ccc(-c2nc3ncccn3c2Nc2ccc3c(c2)OCCO3)cc1	-0.9	·	16	0.0	0.66	-2	·	·	·	·
COc1ccc(CCN(C)C(=O)c2cncc(Br)c2)cc1OC	0.1	-0.2	-2	-3.1	0.68	-11	i	10	11	0.0
CCNC(=S)N1CCNC(=O)C1CC(=O)OC (centres undefined)	-1.6	-9.9	-20	0.5	0.7	4	i	21	12	1.1
CCOCCCNC(=O)C(c1ccc(OC)cc1)N(Cc1ccc2c(c1)OCO2)C(=O)c1ccccc1O (centres undefined)	-0.5	0.3	2	4.8	0.68	·	i	-20	-30	-2.6
Cc1cccc(NC(=O)c2nc[nH]c2C(=O)N[C@@H](Cc2ccccc2)C(=O)OC(C)(C)C)c1	-0.4	3.8	17	2.3	·	13	i	13	4	-2.9
COc1cccc(-n2c(SC)nnc2-c2c[nH]c3ccccc23)c1	-0.3	0.0	16	6.5	0.76	3	i	-10	-22	-1.5
Cc1occc1C(=O)NNC(=O)Nc1ccc(Cl)c(Cl)c1	-0.6	2.9	3	3.6	0.66	-9	i	-2	4	2.4
COc1cc2c(cc1OC)CN(CC(=O)Nc1cccc([N+](=O)[O-])c1)CC2	-0.3	-4.5	10	-28	0.65	5	i	1	10	-4.6
Cc1ccc(NC(=O)COC(=O)c2cc(C)nc3ccccc23)c([N+](=O)[O-])c1	-0.2	-7.5	-18	4.4	0.72	1	i	-4	8	-1.1
CN1C(=O)CC(N2CCN(C(=O)CN3CCCC3)CC2)C1=O (centres undefined)	-0.8	·	-6	2.9	0.65	-7	·	·	·	·
COc1ccc(-c2nc(CSCC(=O)NCc3ccco3)c(C)o2)cc1	0.2	·	-7	3.5	0.74	2	·	·	·	·
Nc1nonc1-n1nnc(C(=O)N/N=C\c2cccc(Cl)c2)c1CN1CCOCC1	0.6	3.6	-12	·	·	0	i	-2	-3	-1.5
CC1(C(=O)N/N=C/c2c(F)c(F)c(F)c(F)c2F)CC1(Cl)Cl (centres undefined)	1.3	2.0	·	·	·	-2	i	-37	-44	-6.5
CC(NC(=O)/C(C#N)=C1\N=C(NC(=O)c2ccco2)c2ccccc21)c1ccccc1 (centres undefined)	0.0	3.0	9	5.0	0.61	0	i	13	11	31
O=C(Cc1ccc(NC2=NC3CS(=O)(=O)CC3S2)cc1)Nc1ccc(F)cc1 (centres undefined)	·	-14	3	3.4	0.79	-1	i	1	2	5.0
CN(C)/C=C1\C(=O)Oc2ccccc2C1=O	0.0	1.0	-27	1.9	0.68	·	i	-15	-18	1.4
CC(=O)c1ccc(S(=O)(=O)Nc2ccc(Cl)c(S(=O)(=O)N3CCCC3)c2)cc1	0.6	1.2	·	2.4	0.71	-1	i	-3	-1	2.4
Cc1nc(P(=O)(c2ccccc2)c2ccccc2)c(N2CCOCC2)o1	3.0	·	-5	-1.6	0.73	-3	·	·	·	·
C=CCn1c(CCn2c3ccccc3c3ccccc32)n[nH]c1=S	0.8	-1.6	-2	0.5	0.73	4	i	-27*	-16*	-1.0*
CCCOc1ccc(N2CC(C(=O)Nc3ccc4c(c3)OCO4)CC2=O)cc1 (centres undefined)	0.1	-2.3	-4	0.1	0.73	2	i	-4	-1	-3.7
NC1=NC[C@H](Cc2ccc(O)cc2)N1CCCCC1CCCCC1	1.5	18	60*	3.9	0.62	102*	i	-56	-77	-27
O=S(=O)(Nc1nc2ccccc2[nH]1)c1ccc(Cl)cc1	0.3	·	9	1.7	0.69	-6	·	·	·	·
O=C(O)c1cc2c(cc1NC(=O)c1c(F)cccc1Cl)OCCCO2	0.0	0.2	-15	1.6	0.67	-1	i	3	-20	0.0
COc1ccc(OC)c(S(=O)(=O)N2CCC(C(=O)NC(C)c3ccccc3)CC2)c1 (centres undefined)	0.0	·	-4	1.2	0.66	7	·	·	·	·
CC(=O)c1cccc(N2C(=NC(=O)COc3ccccc3)SC3CS(=O)(=O)CC32)c1 (centres undefined)	0.3	-1.2	1	2.5	0.69	-1	i	7	4	-1.3
COc1ccccc1NC(=O)Nc1cc(C(C)(C)C)nn1C	0.1	-3.2	6	3.7	0.68	0	i	·	·	·
